# PABP FP inh: PABP poly(A) RNA binding inhibitors, primary screen, biochemical, fluorescence polarization, uHTS; Polyadenylate-binding protein 1 (Homo sapiens), P11940; inhibition, % at 35 µM; actives 1% (n = 290,000);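 active means 50% or more with normal probe brightness, or confirmed in later tests; inconclusive means above 50% with abnormal brightness, or retests that disagree; inactive means below 50% or failed in later tests; about a fifth of its hits are not listed in these tables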;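 further: calls also rest on retests at 20 µM and on dose response follow-up; controls were probe without protein and protein plus probe with vehicle; some compounds called inactive have numbers as strong as hits; many hits fall short of the cut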
# MT1-MMP act inh: blockers of MT1-MMP proenzyme processing, primary screen, HT1080 RFP-PRO-GFP cells, GFP/RFP fluorescence. GFP/RFP ratio fluorescence, overnight; percent of plate control window, DMSO zero. GFP/RFP ratio change, % at 20 µM. actives 0.061% (n = 360,000);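 active means GFP/RFP ratio change of at least 30% with cell ATP level not reduced by more than half and red fluorescence within 50% of control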; further: strong numbers were not always called active
#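 Material – HT1080 RFP-PRO-GFP cells · Control set – DMSO wells and RFP-L50D-GFP cells · Incubation – overnight cell settling, then overnight compound exposure, 37 °C, 5% CO2 · Compound dosing – single-point 20 µM compound, 1% DMSO · Read-out – GFP/RFP fluorescence ratio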
# UUG fidelity: modulators of yeast start codon fidelity, primary screen, whole organism, S. cerevisiae, single point, plate reader. actives 0.13% (n = 350,000). S. cerevisiae UUG-firefly luciferase reporter, luminescence/redox ratio. AID 602363, 2012. activity score, % at 18.7 µM;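 active means replicate mean at a twofold rise or more, about +100% in these data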;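 further: firefly luciferase made from a UUG start codon reports start codon fidelity; reporter light over untreated wells divided by growth signal over untreated wells; some hits fall short of that in this replicate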
# eIF4H FP inh: human eIF4H binding inhibitors, primary screen, translation initiation inhibitor project, biochemical, uHTS, fluorescence polarization | inhibition, % at 35 µM | AID 2012, 2009 | eIF4H fluorescence polarization binding assay | Eukaryotic translation initiation factor 4H (Homo sapiens), Q15056 | actives 0.94% (n = 290,000);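 active means 50% or more with normal probe brightness, or confirmed in later tests; inconclusive means above 50% with abnormal brightness, or retests that disagree; inactive means below 50% or failed in later tests; about a fifth of its hits are not listed in these tables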;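 further: calls also rest on retests at 20 µM and on dose response follow-up; 0% = protein and probe with vehicle and 100% = probe without protein; strong numbers were not always called active; many hits fall short of the cut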
# CSC inhib: cancer stem cell viability inhibitors, primary screen, luminescence; inhibition, % at 7.5 µM; cancer stem cell-like cells viability; AID 2717, 2010; actives 1.1% (n = 300,000);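 active means mean at 75% or more and at least half the replicates too; inconclusive means mean and replicates disagree; tested in HMLE shEcad cells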;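 further: 0% = median of negative and 100% = median of positive control wells; the first replicate is given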
# Env fusion inh: inhibitors of HIV-1 Env-driven cell-cell fusion, primary screen, HeLa-JRFL effector, CEM21 target cells, luciferase; inhibition, % at 12.3 µM; actives 1.1% (n = 360,000); AID 651610, 2012;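 active means mean replicate inhibition score of at least 50 and every replicate individually at or above 50; inconclusive means only one of the two criteria met; inactive means mean below 50 and not all replicates reaching 50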;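 further: 0% = plate neutral controls and 100% = maraviroc near 300 nM; one replicate is shown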
# Rce1 inh: yeast Rce1p protease inhibitors, primary screen, biochemical, fluorescence, cell-free homogeneous | calls only | yeast membranes, quenched prenylated peptide cleavage fluorescence | CAAX prenyl protease 2 (Saccharomyces cerevisiae (strain ATCC 204508 / S288c)), Q03530 | actives 0.27% (n = 290,000) | AID 2563, 2010;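 active means fall in fluorescence gain of 50% or more versus controls, with final raw signal at or below 3038400; inconclusive means same 50% fall but final raw signal above 3038400; inactive means fall in fluorescence gain under 50%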;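 further: plate controls were neutral control wells for no effect and wells lacking membranes for full effect; tested at 10 µM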
# Target sequence (Q03530 whole entry, looked up): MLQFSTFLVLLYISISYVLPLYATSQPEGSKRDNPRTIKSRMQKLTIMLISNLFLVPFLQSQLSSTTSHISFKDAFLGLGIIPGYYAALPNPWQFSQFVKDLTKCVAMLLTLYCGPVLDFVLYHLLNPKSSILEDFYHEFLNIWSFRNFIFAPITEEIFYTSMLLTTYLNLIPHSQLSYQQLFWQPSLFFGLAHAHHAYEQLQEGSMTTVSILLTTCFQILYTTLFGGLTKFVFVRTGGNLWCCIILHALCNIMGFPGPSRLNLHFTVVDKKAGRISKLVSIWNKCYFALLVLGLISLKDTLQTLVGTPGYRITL
# eIF4H FP inh retest: second read-out of eIF4H FP inh, no call of its own (marks repeat the call); inhibition, %; compound at 20 µM; confirmation average;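 mean of two retest wells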
# PABP FP inh retest: second read-out of PABP FP inh, no call of its own (marks repeat the call); inhibition, %; compound at 20 µM; confirmation repeats;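 mean of two retest wells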
# MT1-MMP act inh RFP: also measured in MT1-MMP act inh; calls as there; RFP signal change, %; measured here: RFP expression control read;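 0 = vehicle wells; hits needed this value within 50% of zero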
# Active calls of the source: *; i = inactive; ? = inconclusive; · = not tested or not shown. Some of the compounds tested; count on the stated rates, not on these rows.
# Preview (two entries):
SMILES,PABP FP inh,MT1-MMP act inh,MT1-MMP act inh RFP,UUG fidelity,eIF4H FP inh,CSC inhib,Env fusion inh,Rce1 inh,others
CCCCN(CCCC)Cc1ccc(C(=O)NN)o1,23,0,2,-7,-1,-6,3,i,
CN(C)/C(CN1CCOCC1)=C1\N=C(c2ccccc2)OC1=O,-4,-9,-2,6,-5,-4,·,i,

# The list itself, from the start:
SMILES,PABP FP inh,MT1-MMP act inh,MT1-MMP act inh RFP,UUG fidelity,eIF4H FP inh,CSC inhib,Env fusion inh,Rce1 inh,others
CCCCN(CCCC)Cc1ccc(C(=O)NN)o1,23,0,2,-7,-1,-6,3,i,
CN(C)/C(CN1CCOCC1)=C1\N=C(c2ccccc2)OC1=O,-4,-9,-2,6,-5,-4,·,i,
Cc1ccc(C)c(NC(=O)CN(C)S(=O)(=O)c2cccc3cccnc23)c1,1,-3,-1,·,-3,-15,-20,i,
COc1ccc(NC(=S)N2CCN(C(=O)c3ccccc3)CC2)cc1,1,-1,4,·,-9,-7,17,i,
CC(=O)c1ccc(N2CCN(C(=O)COc3ccc4c(c3)CCC4)CC2)cc1,2,-6,-4,-17,75,10,5,i,eIF4H FP inh retest=20;PABP FP inh retest=16
Cc1cccc(NC(=O)CSCc2cc(=O)n3nc(C4CC4)sc3n2)c1,13,-2,5,-9,-4,-3,-1,i,
COc1ccc(C2=NN(C(=O)CCC(=O)O)C(c3ccc(OC)c(OC)c3)C2)cc1 (stereo not drawn),-1,4,1,-12,-3,-4,-8,i,
CN(C)Cc1ccccc1-c1cccc2nccn12,·,-8,-3,-10,·,·,6,·,
COc1ccccc1NC(=O)C1CCCN(S(=O)(=O)c2cccc3nsnc23)C1 (stereo not drawn),1,-3,-2,-12,-2,3,-99,i,
CN(Cc1ccccc1)C(=O)c1cccc(NC(=O)Cc2ccc(NC(=O)C3CCN(C(=O)C4CCCC4)CC3)cc2)c1,·,0,-14,-17,·,·,-12,·,
COc1ccc(CSCC(=O)NN=C2CCN(C)CC2)cc1,8,0,1,·,-2,2,-14,i,
Cc1ccc(S(=O)(=O)N2[C@@H](c3cccc(Cl)c3)C(C(=O)O)=CC[C@H]2c2cccc(C)c2)cc1,·,1,2,-16,·,3,0,·,
N#Cc1ccc(C(=O)Nc2cc(S(=O)(=O)Nc3ccc(Cl)cc3)ccc2N2CCCCC2)cc1,-6,-8,-16,·,-1,35,27,i,
NC(N)=NS(=O)(=O)c1ccc(NC(=S)NC(=O)c2ccc(Br)cc2)cc1,-7,2,-4,·,-7,-6,-10,i,
CCOc1ccc(CO/N=C/c2c(C)[nH]c(=O)[nH]c2=O)cc1,-11,2,-1,·,6,-10,7,i,
CCN(CC)C(=O)Oc1ccc(Br)c2ccccc12,-2,-1,1,1,-10,-8,-17,i,
CC(C)(CN1CCN(Cc2ccccc2)CC1)NS(=O)(=O)c1ccc(Cl)cc1,-8,5,-8,1,-6,69,-5,i,
COc1ccc(CNC(=O)C2CCC(CNS(=O)(=O)c3cccs3)CC2)cc1 (stereo not drawn),7,0,-3,2,-2,1,-4,·,
CC(=O)c1sc(NC(=O)C(C)Oc2ccc3c(C)cc(=O)oc3c2)nc1C (stereo not drawn),17,0,-8,4,-2,-26,1,i,
COc1ccccc1NC(=O)C(C)OC(=O)/C=C/c1ccc2ccccc2n1 (stereo not drawn),·,2,0,·,·,-2,-34,i,
Cc1ccc(NNC(=O)C2CCC2)cc1C,1,-3,-1,18,-7,19,2,i,
CC(=O)N1c2c(cc(Br)cc2S(=O)(=O)NCc2ccc(C)cc2)CC1C (stereo not drawn),22,-3,-8,3,4,-3,16,i,
Cc1c(C(=O)NCc2nnc(-c3ccccc3)o2)oc2c(F)cccc12,3,0,-2,-14,-11,1,-22,i,
Cc1ccc(-c2c(C)sc(NC(=O)C3C4CCC(O4)C3C(=O)O)c2C(=O)OC(C)C)cc1 (stereo not drawn),-5,1,2,·,-6,-8,·,i,
CCN(C(=O)COC(=O)c1cccc(S(=O)(=O)N2CCOCC2)c1)C1CCS(=O)(=O)C1 (stereo not drawn),·,2,-1,-8,·,-3,-9,i,
Clc1ccc(-n2c(SC/C=C/c3ccccc3)nnc2-c2cccnc2)cc1,-4,-2,-2,-6,-8,-5,?,i,
COc1cc(NC(=O)C2CC(c3ccc(Cl)cc3)=NO2)cc(OC)c1OC (stereo not drawn),11,3,-2,-4,8,0,19,·,
Cc1cc(C(C)(C)C)oc1C(=O)N(CC(=O)NC1CCCC1)Cc1ccc(F)cc1,-8,-7,-10,22,8,3,·,i,
COc1ccc(CN=C(C#N)C2=C(O)c3ccccc3C2=O)cc1,6,0,2,·,0,4,-13,i,
O=C1CCN(S(=O)(=O)c2ccccc2)N1,3,1,5,-28,-8,-12,-40,i,
c1ccc(-c2nc(CSc3nnnn3-c3ccccc3)cs2)cc1,13,7,4,-21,-7,-15,·,i,
CC(Nc1nc(-c2ccc(F)cc2)cs1)c1nc2cc(Cl)c(Cl)cc2n1CCOCCO (stereo not drawn),·,3,-9,-30,·,-2,10,i,
CC1CC(=O)N(CC(=O)Nc2ccc(Br)cc2)c2ccccc2S1(=O)=O (stereo not drawn),-1,1,1,-5,-2,-9,12,i,
O=C(CCC(=O)N/N=C/c1ccco1)N/N=C/c1ccco1,7,-1,-1,-9,1,-6,-8,i,
Cc1ccc(C2CCN(C(=S)NC(C)(C)C)C2)cc1 (stereo not drawn),-12,3,-1,·,3,18,-11,i,
CC(N=C(NS(=O)(=O)c1ccc(Cl)cc1)c1ccccc1)C(=O)O (stereo not drawn),4,1,4,-5,2,3,18,i,
CC(C)=CC(=O)OCC(=O)Nc1nc(C)c(Cl)cc1Cl,19,-1,-3,·,14,6,-46,i,
COc1ccc(S(=O)(=O)N(CCc2ccccc2)CC(=O)O)cc1,2,5,-2,-3,-10,6,-12,i,
CCOC(=O)c1c(C)[nH]c(C(=O)OCc2ccc(F)cc2)c1C,-2,-2,0,1,4,10,-108,i,
Cc1ccc(NC(=O)c2cc(S(=O)(=O)N3CCOCC3)c(Br)s2)cc1,-9,3,-3,·,-1,11,7,i,
CC1CCCCC12NC(=O)N(CC(=O)N1CCN(c3ccccc3)CC1)C2=O (stereo not drawn),·,4,0,-7,·,-3,-3,·,
CCCCNC(=O)c1nc(C2CCN(S(=O)(=O)c3ccccc3C(F)(F)F)CC2)oc1-c1ccccc1,·,-3,-7,3,·,·,13,·,
COc1ccc(C(=O)Nc2ccc3c(c2)OCO3)cc1OC,-8,5,6,-11,3,10,·,i,
C/C(=N\OCc1cccc(C(=O)O)c1)c1ccc(Cl)cc1,7,1,-3,-75,-8,8,62*,i,
COCCNC(=O)CCCCCNS(=O)(=O)c1ccc(C)cc1,-1,-2,6,-10,-5,-5,-18,i,
CCNS(=O)(=O)c1ccc(CCC(=O)NCc2ccccn2)cc1,-6,0,1,-2,-6,13,8,i,
O=C(CSc1nc2ccccc2o1)Nc1cc(C(F)(F)F)ccc1N1CCOCC1,4,-15,-13,5,-4,3,-17,i,
Cc1nn(Cc2ccc([N+](=O)[O-])cc2)c(=O)n1-c1ccccc1,-2,2,9,-7,-7,6,-11,i,
CC1CCN(C(=O)CSc2nc3ccccc3[nH]2)CC1,-2,1,-1,6,-7,·,·,i,
Cc1cc(C)nc(NC(=O)CSc2ncccn2)n1,-4,·,·,·,-5,-8,·,i,
O=C(NCc1ccco1)c1ccc(Cl)c(S(=O)(=O)N2CCc3ccccc32)c1,-2,0,-14,·,-6,20,0,i,
CCN(CC(=O)Nc1c(F)cccc1F)C(=O)c1nc2nccc(C)n2n1,·,-2,2,-12,·,·,-2,·,
CCOC(=O)c1ccc(NCc2ccc(N(C)C)cc2)cc1,-8,2,0,-5,0,·,-38,i,
COc1ccc(NC(=S)N2CCN(C(=O)c3ccco3)CC2)cc1,0,3,2,-22,-7,-4,-3,i,
COC(=O)c1ccccc1NC(=S)N1CCN(c2ccccn2)CC1,-5,-2,0,·,-8,-8,13,i,
CC(=O)/C(=C/c1ccccc1)C(=O)Nc1ccccc1C,-3,-2,1,-8,-17,40,-1,i,
FC(F)(F)c1ccc(C2Nc3cccc4cccc(c34)N2)cc1,7,0,8,·,67,·,0,·,eIF4H FP inh retest=0;PABP FP inh retest=27
COc1ccc2[nH]cc(S(=O)(=O)c3ccc(C)cc3)c2c1,6,-2,-2,·,-1,-12,7,i,
CC(=O)/C(C(=N)N1CCN(C(c2ccccc2)c2ccccc2)CC1)=C(\C)O,6,·,·,-16,-4,3,·,i,
CCn1c(SCC(=O)N/N=C/C(C)=C/c2ccco2)nnc1-c1ccccc1,6,-10,2,-15,31,5,-64,i,

# (next part)
SMILES,PABP FP inh,MT1-MMP act inh,MT1-MMP act inh RFP,UUG fidelity,eIF4H FP inh,CSC inhib,Env fusion inh,Rce1 inh,others
CCOc1ccc(N=CC2=C(O)CC(C)(C)CC2=O)cc1,2,6,6,-8,-8,·,-20,i,
CC(C)(C)NC(=O)CN(C(=O)CNC(=O)c1cccs1)c1ccccc1F,-7,-2,0,-10,7,-12,-6,i,
O=C(CN(CCc1ccccc1)C(=O)c1csnn1)NCc1ccc(F)cc1,-4,-3,-1,-18,-6,-5,17,i,
CN(CC(CC(=O)Nc1nncs1)c1ccccc1)S(=O)(=O)c1ccccc1 (stereo not drawn),-5,-4,-8,-21,-11,-16,9,i,
CC1(C(=O)Nc2ccc3c(c2)OCO3)CCN1Cc1csc2ccccc12 (stereo not drawn),·,2,-1,-3,·,·,63*,·,
NC(=O)c1nsc(C(=O)N(Cc2cccnc2)C(C(=O)NCc2ccc(F)cc2)c2ccc(O)cc2)c1N (stereo not drawn),5,0,4,-6,-8,·,1,i,
COC(=O)c1ccc(NC(=O)C(=O)c2cn(CC(=O)N3CCOCC3)c3ccccc23)cc1,4,-1,1,-18,-3,-6,0,i,
O=C(O)c1sccc1S(=O)(=O)N1CCOCC1,·,0,3,-7,·,-14,·,·,
O=C(NN1C(=O)C2C(C1=O)C1C=CC2C12CC2)c1ccccc1Cl (stereo not drawn),20,1,2,-13,11,-5,0,i,
O=C(NNC(=O)C1CC1)c1cccc([N+](=O)[O-])c1,1,-5,7,0,-13,2,-11,i,
COc1cc(C(=O)OCCCN2CCOCC2)ccc1O,-7,2,2,-13,-6,-17,-10,i,
Cc1ccc(CN2C(=O)CCC2C(=O)NCc2cccnc2)cc1 (stereo not drawn),-2,2,1,·,4,11,-28,i,
COc1ccc(C(=O)CSc2nnc(CN3CCCCC3)n2-c2ccc(F)cc2)cc1OC,112,-3,-5,·,-5,42,·,i,eIF4H FP inh retest=27;PABP FP inh retest=49
Cc1nnc(SCC(=O)NC2CCCc3c2cnn3-c2ccccc2F)o1 (stereo not drawn),8,-2,-2,-19,-7,·,1,i,
CCN(CCCn1c(=S)[nH]c2ccc(N3CCOCC3)cc2c1=O)c1ccccc1,-2,0,-15,·,-2,?,-1,i,

# Compound activity as filed in PubChem.
